High-throughput results as filed in PubChem.
2A StopGo: FMDV 2A StopGo reporter, luciferase signal; actives 1.2% (n = 410,000); human cells with a luciferase reporter of 2A StopGo recoding; control for the full effect not named in the record; Potency, µM (doses to about 57.9 µM), for inactives: top-dose signal change, negative = less light; active = well fitted falling curve with a large enough effect; inconclusive = small, poorly fitted or top-dose-only effect; inactive = no such curve, though single readings can be large or run the other way; tested in HEK293T cells; note: nearly all actives have a fitted effect of over 45% in size; luciferase light after 4 h
RE007 growth inh: less growth of the S. pombe RE007 Vpr strain; S. pombe RE007 Vpr strain, BacTiter-Glo ATP luminescence, 24 h; control for the full effect not named in the record; Potency, µM (top dose mostly 92.2 µM), for the others: at the top dose activity change, negative = less growth; actives 0.21% (n = 360,000); active = well fitted falling curve with a large enough effect; inconclusive = small, poorly fitted or top-dose-only effect; inactive = no such curve, though single readings can be large or run the other way;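 note: nearly all actives have a fitted effect of over 50% in size; the assay follows cell death caused by Vpr and the record does not say whether a fall means rescue or toxicity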
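Fission yeast RE007 carrying one integrated HIV-1 vpr copy, seeded at OD 0.01 in PMG+AL medium with 23 nL pinned compound. Grown 24 h at 30 degrees; viability read by BacTiter-Glo luminescence after 5 min.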
* = called active by the depositor; ? = inconclusive; [ ] = another dose, or the depositor's remark. % is set by controls: 0 for no effect and ±100 for the full control effect; potency is the fitted concentration of half-maximal effect. An excerpt (hit frequency here may not be typical).

SMILES	2A StopGo	RE007 growth inh
O=C(NCc1ccccc1Cl)c1ccc2nc([C@H]3C[C@H](O)[C@@H](CO)O3)[nH]c2c1	-15%	-2%
CC1(C(=O)Nc2cnc3ccccc3c2)CCN1Cc1ccc(-c2ccccc2)o1 (stereo not drawn)	30%[activator]	-23%[18.4 µM]
COCCNC(=O)C1CCCN(C(=O)C2(c3ccc(Cl)cc3)CCCC2)CC1 (stereo not drawn)	-18%	-5%
O=C1CCC2(O)C3Cc4ccc(O)c5c4C2(CCN3Cc2ccoc2)C1O5 (stereo not drawn)	-12%	-23%
CN1CCN(c2ccc(CNC(=O)C3Cc4c(-c5ccc6c(c5)OCO6)ccnc4O3)cc2)CC1 (stereo not drawn)	-19%	-11%
O=C(Nc1ccc2c3c(cccc13)CC2)c1ccccc1	48%[activator]	-25%
CC(CCl)n1c(=O)c2ccccc2n1S(C)(=O)=O (stereo not drawn)	-18%	4%
CC(C)Oc1cccc(NC(=O)C2(C)CCCN2C(=O)C(C)C)c1 (stereo not drawn)	-16%	-28%
CCc1nc2ccc(C(=O)N3CCN(S(=O)(=O)CC)CC3)cn2c1N(C=O)CCC(C)C	-21%	-5%[18.4 µM]
CCCCNC(=O)C[C@@H]1C[C@@]2(C(=O)OCC)CCC=C2N(Cc2ccccc2)C1=O	-1%	6%
O=C(NCC1=C(c2cccc3ccccc23)C[C@@H]2CC[C@H]1N2Cc1ccco1)c1cccs1	-17%	-19%
COc1c(C)cc(C(O)c2ncc(-c3ccccc3)[nH]2)cc1C (stereo not drawn)	1%	-8%
Clc1cccc(Cc2c(-c3ccco3)nc3ccc(Cl)cn23)c1	40µM*	?
OC[C@@H]1CN(Cc2cccs2)C[C@H](n2cnc3c(NCc4ccncc4)ncnc32)O1	0%	10%
CC1(C(=O)Nc2cccc3c2CCCC3)CCN1C(=O)CCC1CCCC1 (stereo not drawn)	-22%	7%
O=C(O)c1cccc(S(=O)(=O)Nc2ccccc2Oc2ccccc2)c1	-23%	-1%
O=C(NCCc1ccccc1)c1ccccc1C(F)(F)F	63%[activator]	-16%
C[C@@H]1CN([C@@H](C)CO)C(=O)CCCn2nncc2CO[C@H]1CN(C)C(=O)c1ccc(N2CCN(C)CC2)cc1	-19%	6%
COc1ccc(-c2coc3c(C(=O)NC4CCCCC4)cccc23)c(C)c1	?	4%
O=C(Nc1ccn(CCCNCc2ccccn2)c(=O)n1)OCc1ccccc1	-4%	5%
CCOC(=O)[C@]12Cc3cc4ccccc4cc3[C@H]1N(Cc1ccccc1)C(=O)c1cc(OC)ccc12	7.9µM*	-5%
CN(C(=O)c1ccc(NC(=O)Cc2cccc(NC(=O)C3CCCN(C(=O)C4CCC4)C3)c2)cc1)C1CC1 (stereo not drawn)	31%[activator]	1%
COc1ccc(C2=Nc3ccccc3NC(=O)C2N(Cc2ccccc2)C(=O)C2=NNC(=O)CC2)cc1 (stereo not drawn)	18%	-14%
C=CCOC(=O)C1=C[C@@H](c2cn(C(C)=O)c3ccccc23)C[C@@H](OCc2ccc(CO)cc2)O1	-17%	4%
O=C1NC[C@H](CCCCN2C[C@@H](Cc3ccccc3)N(Cc3ccccc3)C(=O)C2=O)N(CCC2CCCCC2)C1=O	35%[activator]	14%
C[C@@H]1ON(C)[C@H]2C[C@H]3c4cc(N5CCOCC5)ccc4CCN3C(=O)[C@@H]12	7%	31%
CC(O)(c1ccc(F)c(F)c1)c1nc(-c2ccc(S(C)(=O)=O)cc2)cs1 (stereo not drawn)	-18%	3%[18.4 µM]
COc1ccc(OCc2cc(C(=O)NC(C)c3nc(C)cs3)no2)c(Cl)c1 (stereo not drawn)	51%[activator]	4%
O=S1(=O)N[C@H](Cc2ccccc2)COc2cccc(N3CCC[C@@H]3CO)c21	?	-8%
O=C(C(=O)N1CCN(c2ccccc2)CC1)c1ccccc1	-7%	8%
O=C(NC(c1ccc(F)cc1)c1cnccn1)C1CCN(CCOc2ccc(Cl)cc2Cl)CC1 (stereo not drawn)	-18%	-5%[18.4 µM]
C=C[C@H]1C(C(=O)OCC)=CC[C@@H](c2ccccc2)N1S(=O)(=O)c1ccc(C)cc1	0%	-7%
COc1ccc(OCCN2CCC(C(=O)NC(c3ccccn3)c3ccccc3OC)CC2)cc1 (stereo not drawn)	-21%	-23%
CCCN1C[C@@H](C)[C@@H](OC)CN(C)C(=O)c2ccc(NC(=O)c3cccc(F)c3)cc2OC[C@H]1C	0%	-18%
C#CCNC(=O)C[C@@H]1C[C@@]2(C(=O)OC)CC(C)(C)CC=C2N(Cc2ccco2)C1=O	14%	-5%
CCCCNC(=O)C1(C)CCN1C(=O)c1cc(F)ccc1C (stereo not drawn)	-5%	8%[18.4 µM]
CO[C@@H]1CN(C)C(=O)c2cc(NC(=O)NC3CCCCC3)ccc2OC[C@@H](C)N(CCc2ccccc2)C[C@@H]1C	0%	-27%
O=C(OCC(O)C(O)C(O)COC(=O)c1ccccc1)c1ccccc1 (stereo not drawn)	-13%	8%
Cn1sccc1=O	-22%	6%
COC(=O)C[C@H]1C[C@@H]2c3cc(N(C)C)ccc3O[C@@H]2[C@H](CO)O1	9%	-6%
C[C@@H]1CN([C@@H](C)CO)C(=O)CCCn2nncc2CO[C@H]1CN(C)S(=O)(=O)c1cccc(C#N)c1	-14%	-1%
OC(c1cccnc1)c1nc(-c2ccc3c(c2)OCO3)cs1 (stereo not drawn)	28%	-16%
CCCS(=O)(=O)NC(=O)C1(C)CCCN(C(=O)c2ccncc2)C1 (stereo not drawn)	-10%	2%
Cc1ccc(-c2nc3ccc(Cl)cn3c2Cc2ccccc2C(F)(F)F)cc1	62%[activator]	-22%
CCCCC[C@@H](C)N1C[C@H](COCc2ccccc2)Oc2cc(N3CCC[C@H]3CO)ccc2S1(=O)=O	-2%	3%
COc1ccccc1-n1cc(CN2CCc3onc(-c4ccc(Br)cc4)c3C2=O)nn1	?	9%
COc1ccc(NC(=O)c2cc(C3CCCCN3C(=O)c3ccc(Cl)cc3)on2)c(C)c1 (stereo not drawn)	2%	3%[18.4 µM]
c1ccc2c(C(c3nnnn3-c3ccc4c(c3)OCCO4)N3CCCCC3)ccnc2c1 (stereo not drawn)	2%	-2%
O=C1NCN(c2ccccc2)C12CCN(C(c1cccc3ccccc13)c1nnnn1C1CCCCC1)CC2 (stereo not drawn)	-3%	-11%
CC1(C(=O)NS(=O)(=O)c2cccc(C#N)c2)CCN1C(=O)CC1CC1 (stereo not drawn)	-16%	-1%[18.4 µM]
N#C/C(=C\c1cccn1S(=O)(=O)c1cccc(C#N)c1)S(=O)(=O)c1ccc(F)cc1	-6%	5%
COCCNc1nc(NCc2ccccc2)nc2ccsc12	?	-10%
CCC(c1nnnn1-c1ccc2c(c1)OCCO2)N1CCN(C(=O)C2CCCO2)CC1 (stereo not drawn)	-11%	17%
COc1ccccc1S(=O)(=O)N(C)C[C@@H]1OCc2cnnn2CCCC(=O)N([C@H](C)CO)C[C@@H]1C	-6%	-28%
C[C@@H]1CN([C@@H](C)CO)C(=O)CCCn2nncc2CO[C@H]1CN(C)C(=O)Nc1ccc2c(c1)OCO2	-13%	-24%
Cc1ccc(S(=O)(=O)N2C(c3ccccc3)CC(=O)C3CN(S(=O)(=O)c4ccc(Cl)cc4)C(c4ccccc4)CC32)cc1 (stereo not drawn)	-4%	-2%
Cc1ccc(-c2nn(-c3ccccc3)cc2C(=O)Nc2cccc(S(=O)(=O)NC3=NCCC3)c2)cc1	68%[activator]	6%
CCOC(=O)[C@]12CCC=C1N(CCC1=CCCCC1)C(=O)[C@H](CC(=O)NCCCN1CCCC1=O)C2	?	-5%
Cc1ccc(S(=O)(=O)N2[C@@H](CCO)OC[C@H]2C(C)C)cc1	-4%	-7%
O=C(CSc1ncn[nH]1)N/N=C/c1ccc(F)cc1	9%	-3%

Entries of single compounds, looked up by structure. Order of values: 2A StopGo | RE007 growth inh
O=C1NCN(c2ccccc2)C12CCN(C(c1cccc3ccccc13)c1nnnn1C1CCCCC1)CC2 (stereo not drawn) is listed with -3% | -11%
N#C/C(=C\c1cccn1S(=O)(=O)c1cccc(C#N)c1)S(=O)(=O)c1ccc(F)cc1 is listed with -6% | 5%

(further entries)
SMILES	2A StopGo	RE007 growth inh
CC1(C(=O)NS(=O)(=O)c2cccs2)CCN1C(=O)C1CC1 (stereo not drawn)	-12%	8%
C[C@H]1CN([C@@H](C)CO)C(=O)CCCn2cc(nn2)CO[C@@H]1CN(C)C(=O)c1cc(-c2ccccc2)on1	-6%	30%
COc1cccc(NC(=O)N(C)C[C@H]2OCc3cnnn3CCCC(=O)N([C@H](C)CO)C[C@@H]2C)c1	-1%	1%
CC(=O)Nc1ccc(-c2ccnc3c2CC(C(=O)Nc2cccc(C(C)=O)c2)O3)cc1 (stereo not drawn)	-9%	0%
O=C(OCc1ccccc1)N1CCC2CC1c1ccc(Cl)cc12 (stereo not drawn)	24%	-7%
Cc1ccc(C)c(CC(=O)N2CCCCC2c2cc(C(=O)Nc3cccc(C#N)c3)no2)c1 (stereo not drawn)	-15%	-4%
Cc1ccsc1/C=C1\Oc2cc(O)ccc2C1=O	47%[activator]	-29%
COC(=O)C1=C(C(=O)OC)[C@@H]2Nc3ccccc3[C@@]23C[C@@H](C(=O)OC)N(C(=O)C2CCC2)C3=N1	-30%	1%
Cn1c(SCc2ccccc2)nc(N)c(N=O)c1=O	?	?
COc1cccc(-c2cccc(NC(=O)C3CCN(CCCn4cccn4)CC3)c2)c1	-9%	-16%
CCc1nc2ccc(C(=O)NCc3ccccc3OC)cn2c1N(C=O)CCC(C)C	-15%	-3%
CC(CCc1ccccc1)NC(=O)C1CC1 (stereo not drawn)	10%	18%

Next section, starting with the last 3 of the part before.
SMILES	2A StopGo	RE007 growth inh
COc1cccc(-c2cccc(NC(=O)C3CCN(CCCn4cccn4)CC3)c2)c1	-9%	-16%
CCc1nc2ccc(C(=O)NCc3ccccc3OC)cn2c1N(C=O)CCC(C)C	-15%	-3%
CC(CCc1ccccc1)NC(=O)C1CC1 (stereo not drawn)	10%	18%
O=C(NCC1CCCCC1)c1ccc2nc([C@@H]3O[C@H](CO)[C@H](O)[C@H](O)[C@H]3O)[nH]c2c1	-17%	2%
C[C@@H]1CN([C@H](C)CO)S(=O)(=O)c2ccc(C#C[C@@H](C)O)cc2O[C@@H]1CN(C)Cc1ccc(-c2ccccc2)cc1	-6%	-9%
COc1ccccc1CN1CC(C(=O)NCCCCc2ccccn2)CCC1=O (stereo not drawn)	13%	-12%
CC(=O)Nc1cccc(-c2ccnc3c2CC(C(=O)Nc2ccccc2)O3)c1 (stereo not drawn)	-23%	16%
C[C@@H]1CN([C@H](C)CO)C(=O)CCCn2cc(nn2)CO[C@H]1CN(C)C(=O)c1ccncc1	3%	-4%
COc1ccccc1NC(=O)N(C)C[C@@H]1OCc2cnnn2CCCC(=O)N([C@@H](C)CO)C[C@H]1C	-15%	-14%
CN(C)CCN1CCN(C2CN(CCc3ccccc3)S(=O)(=O)C2)CC1 (stereo not drawn)	-17%	-2%
N#Cc1ccsc1NC(=O)c1ccc2ncsc2c1	27%	9%
COc1ccccc1C(=O)N1CCN(c2nc3cc(C)cc(C)c3cc2C#N)CC1	0%	-4%
CCOc1ccc(NC(=O)CN(C)C(=O)C2CCN(C(=O)Nc3ccccc3)CC2)cc1OCC	-11%	-17%
Nc1sc(-c2ccccc2)cc1C(=O)NCCN1CCOCC1	-6%	-18%
COc1cccc(N2CCN(C(=O)c3cccc(S(=O)(=O)N4CCCC4)c3)CC2)c1	-11%	12%
C[C@H](CO)N1C[C@H](C)[C@@H](CN(C)Cc2cccnc2)Oc2ncc(-c3cccc(C#N)c3)cc2C1=O	-25%	-9%
CCN(C(=O)CSc1nnc(-c2ccccc2OC)n1N)c1c(N)n(Cc2ccccc2)c(=O)[nH]c1=O	-16%	9%
O=C1CCCCCCCN1Cc1ccccc1	-11%	3%
COc1cc(CCN(C(C)=O)C2C(=O)Nc3ccccc3N=C2c2ccc3c(c2)OCO3)cc(OC)c1 (stereo not drawn)	-4%	8%

Single entries from the entries so far.
2A StopGo, Nc1sc(-c2ccccc2)cc1C(=O)NCCN1CCOCC1 stands at -6%
RE007 growth inh, COc1ccc(NC(=O)c2cc(C3CCCCN3C(=O)c3ccc(Cl)cc3)on2)c(C)c1 (stereo not drawn) stands at 3%[18.4 µM]
RE007 growth inh, C[C@@H]1CN([C@H](C)CO)C(=O)CCCn2cc(nn2)CO[C@H]1CN(C)C(=O)c1ccncc1 stands at -4%
RE007 growth inh, O=C(NCC1CCCCC1)c1ccc2nc([C@@H]3O[C@H](CO)[C@H](O)[C@H](O)[C@H]3O)[nH]c2c1 stands at 2%
2A StopGo, COc1ccccc1CN1CC(C(=O)NCCCCc2ccccn2)CCC1=O (stereo not drawn) stands at 13%
